GIRK2 activ: activators of human GIRK2 potassium channels; P48051; HEK293-GIRK2 thallium flux, Thallos fluorescence; calls only for hits at 25 µM; hit rate 0.05% among 63,000; AID 1259325;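 active = among the strongest 0.2% of first-round signals and kept after retests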;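 also: first round at about 10 µM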
Target sequence (P48051 whole entry, looked up): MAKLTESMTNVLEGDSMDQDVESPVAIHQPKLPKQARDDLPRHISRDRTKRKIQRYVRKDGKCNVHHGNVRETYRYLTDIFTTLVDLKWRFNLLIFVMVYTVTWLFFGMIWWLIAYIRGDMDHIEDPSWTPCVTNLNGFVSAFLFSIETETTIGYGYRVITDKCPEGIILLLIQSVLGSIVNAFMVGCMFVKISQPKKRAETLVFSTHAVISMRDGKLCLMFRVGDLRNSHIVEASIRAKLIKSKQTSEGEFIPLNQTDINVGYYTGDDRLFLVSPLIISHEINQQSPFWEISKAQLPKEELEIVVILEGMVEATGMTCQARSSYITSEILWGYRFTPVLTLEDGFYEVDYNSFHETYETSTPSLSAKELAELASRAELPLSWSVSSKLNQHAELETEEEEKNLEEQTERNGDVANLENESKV
Calls only; i = inactive. An excerpt (hit frequency here may not be typical).

SMILES	GIRK2 activ
CC(C)c1cc(=O)[nH]c(-n2nc(-c3cccs3)cc2NC(=O)CSCc2ccccc2)n1	i
Cc1nnsc1C(=O)Nc1cc(N2CCCC2)ncn1	i
CC(=O)N(C)CC(=O)Nc1cnc(-n2ccnc2)nc1	i
CCn1c(=O)c2c(nc3n(-c4cccc(OC)c4)c(C)c(C)n23)n(C)c1=O	i
COc1c(C)c(OC(=O)c2c(C)c(C)c(OC(=O)c3c(C)cc(O)c(C)c3O)c(C)c2OC)c(C)c(C)c1C(=O)O	i
Cc1ccc(-c2ccc(OCC(=O)N3CCOCC3)cc2)cc1	i
COc1cccc(N2C(=O)N(c3ccc(C)cc3)C3CS(=O)(=O)CC32)c1 (stereo not given)	i
O=C(NCCc1ccccc1)N1CCN(CC(O)c2cccs2)CC1 (stereo not given)	i
CS(=O)(=O)N1CCC(C(=O)Nc2c3c(nn2CC(=O)NCc2ccc(F)cc2)CSC3)CC1	i
CCOC(=O)c1ccsc1NC(=O)CCS(=O)(=O)Cc1ccccc1	i
Cc1nc(CSc2nnc3scc(-c4ccccc4)n23)cs1	i
COc1cccc(N2CC(c3nc(C4CC4)no3)CC2=O)c1 (stereo not given)	i
COc1ccc(Cn2nnc(C(=O)Nc3ccc(F)c(F)c3)c2N)cc1Br	i
Nc1c(S(=O)(=O)c2cccs2)c2nc3ccccc3nc2n1/N=C\c1ccccc1	i
CS(=O)(=O)Nc1cccc(NC(=O)CCc2c[nH]c3ccccc23)c1	i
Cc1ccc2c(=O)c(C(=O)N3CCCC3)cn(CC(=O)Nc3ccc4c(c3)OCCO4)c2n1	i
O=C(NCCn1ncccc1=O)C1COc2ccccc2O1 (stereo not given)	i
O=C(c1cccs1)N1CCc2ccc(NC(=O)C3(c4ccc(F)cc4)CC3)cc2C1	i
COc1ccc(C(=O)NC2CC(=O)N(C3CC3)C2)cc1 (stereo not given)	i
Cc1ccccc1-n1nnc(-c2nc(-c3ccc(Br)cc3)no2)c1N	i
CC(C)C(=O)N=C1SC2CS(=O)(=O)CC2N1c1cccc(Cl)c1Cl (stereo not given)	i
COc1ccc2c(=O)c3c(oc2c1)C(=O)N(c1nccs1)C3c1ccc(C(C)C)cc1 (stereo not given)	i
COC(=O)COc1ccc2c(=O)c(Oc3ccccc3OC)c(C)oc2c1	i
C/C=C/C(=O)N1CCCSCC1CN1CCCC1 (stereo not given)	i
Cc1ccc(C)c2sc(N(Cc3cccnc3)C(=O)Cc3ccc(F)cc3)nc12	i
O=C(Nc1ccc(Br)cc1-c1nc2ccccc2[nH]c1=O)c1ccccc1	i
O=C(c1ccc[nH]1)N1CCN(Cc2nncn2C2CCCCC2)CC1	i
Cc1cc(C)c2sc(NC(=O)c3cccs3)nc2n1	i
C#CCCNC(=O)c1ccc(F)c(F)c1	i
COc1ccccc1N1CCCn2c1nc1c2c(=O)n(Cc2ccccc2)c(=O)n1C	i
CCOC(=O)N1CCc2c(sc(N)c2-c2nc3ccccc3s2)C1	i
COc1ccc(S(=O)(=O)NCCn2nc(-c3ccc(Cl)cc3)ccc2=O)cc1F	i
CC(C)Sc1ccc(CC(=O)NCc2cc(-c3ccncc3)n(C)n2)cc1	i
O=C(Nc1ccc(F)c(F)c1)c1cc(=O)c(OCc2ccccc2)c[nH]1	i
O=C(Cc1csc(Nc2ccc(OC(F)(F)F)cc2)n1)Nc1cccnc1	i
CCOC(=O)CC1C(=O)NCCN1C(=O)c1cc2c(=O)n(C)c(=O)n(C)c2s1 (stereo not given)	i
COc1cccc2c1OCC(=O)N(c1ccc(SC)cc1)C2	i
Cc1cccc(NC(=O)C2CCC(Cn3c(=O)[nH]c4ccsc4c3=O)CC2)c1 (stereo not given)	i
COc1ccc(/C=C/c2nc(C#N)c(N3CCN(C(=O)c4ccco4)CC3)o2)cc1OC	i
COc1ccc(CNC(=O)N2CCC(Oc3ccc(C(F)(F)F)cn3)CC2)cc1OC	i
CC(NC(=O)c1nnn(-c2ccccc2Cl)c1-c1ccccn1)c1cccnc1 (stereo not given)	i
O=[N+]([O-])c1ccc(CSc2nnc(-c3cccc(S(=O)(=O)N4CCCC4)c3)o2)cc1	i
COc1ccc(OCc2ccc(-c3nc(C#N)c(N4CC(C)OC(C)C4)o3)o2)cc1 (stereo not given)	i
Cc1ccc(N=c2oc3c(C)ncc(CO)c3cc2C(N)=S)cc1Cl	i
CCOc1cccc2sc(N(Cc3ccccn3)C(=O)CCS(=O)(=O)Cc3ccccc3)nc12	i
Cc1cc(N2CCN(C(=O)Cc3c[nH]c4ccccc34)CC2)nc(N2CCOCC2)n1	i
Cn1cc(C2=C(c3cccc(OCC(O)CO)c3)C(=O)NC2=O)c2ccccc21 (stereo not given)	i
Cc1cc(S(=O)(=O)NCc2ccco2)cc([N+](=O)[O-])c1C	i
O=C(Cn1cnc(-c2ccccc2)cc1=O)Nc1nc2ccccc2s1	i
COc1ccc(-c2csc3c(=O)n(CC(=O)NCc4ccccc4)cnc23)cc1	i
Cc1nc(-n2cccc2)sc1C(=O)N1CC(c2nc(C3CC3)no2)C1	i
COc1nn(C)cc1C(=O)Nc1ccc(C(=O)NC(C)c2ccccc2)cc1 (stereo not given)	i
Cc1cc2oc3c(c(=O)c2cc1Cl)C(c1cccc(Cl)c1)N(CCCN(C)C)C3=O (stereo not given)	i
COc1cccc(-c2c(C#N)c(N)nc3c2CN(C)CC3)c1OC	i
Cn1nc(CNS(=O)(=O)c2ccc(Br)s2)cc1-c1ccncc1	i
COc1ccccc1C(=O)Nc1nc2c(s1)COCC2	i
CCCn1c(C2CC(=O)N(C(C)(C)C)C2)nc2ccccc21 (stereo not given)	i
CCCc1cc(=O)[nH]c(-n2nc(-c3cccs3)cc2NC(=O)c2ccc3c(c2)OCO3)n1	i
COC(=O)c1ccc(C2CCN(S(=O)(=O)c3cccs3)CC2)cc1	i
Cc1nn(-c2ccccc2)c2sc(C(=O)N(C)C3CCN(C)CC3)cc12	i
The listing continues:
SMILES	GIRK2 activ
Cc1ccc(Cl)cc1N1CCN(C(=O)CC2=NS(=O)(=O)c3ccccc3N2)CC1	i
CC(C(=O)O)c1ccc(CC2CCCC2=O)cc1 (stereo not given)	i
CCOC(=O)C1CCN(C(=O)CCc2nc3sc4c(c3c(=O)[nH]2)CCC(C(C)(C)C)C4)CC1 (stereo not given)	i
Cc1ccccc1-n1ccn(Cc2nc(-c3ccccc3)no2)c(=O)c1=O	i
COc1ccccc1C1C(=C(O)c2ccc(OC(C)C)cc2)C(=O)C(=O)N1c1cc(C)on1 (stereo not given)	i
CCOC(=O)Cn1c(=O)c2c(nc3n(-c4cccc(OC)c4)c(-c4ccccc4)cn23)n(C)c1=O	i
Nc1c(C(=O)Nc2cccc(F)c2)c2ccccn2c1C(=O)c1ccccc1	i
Cc1nc(-c2cccs2)sc1CNC(=O)Nc1ccc(F)c(Cl)c1	i
Cc1cn2c3c(=O)[nH]c(=O)n(C)c3nc2n1CCNc1ccc(Oc2ccccc2)cc1	i
COc1ccc2oc(C(=O)Nc3ccc(F)cc3)cc(=O)c2c1	i
CC(=O)Cn1c(=O)c2c(nc3n(-c4cc(C)ccc4C)c(-c4ccccc4)cn23)n(C)c1=O	i
O=C(NCCc1ccoc1)C1CC1	i
O=C(Nc1ccc2c(c1)N(C(=O)C1CC1)CC2)c1cc(C2CC2)on1	i
COc1nn(C)cc1C(=O)NCC(c1cn(C)c2ccccc12)N(C)C (stereo not given)	i
O=C(Cc1ccc(F)cc1)NC1CCN(C(=O)c2cc(-c3cccc(Cl)c3)n[nH]2)CC1	i
CCCC(=O)Oc1c(S(=O)(=O)c2ccccc2)c(C)nn1-c1ccc(C)cc1C	i
Cc1cc(C)n(CC(=O)Nc2ccc3c(c2)OCCO3)c(=O)c1-c1nc(-c2ccccc2)no1	i
COCC(=O)N1CCN(c2nnc(SCC(=O)NCc3ccco3)s2)CC1	i
COc1c(O)cc2c(c1O)C(=O)OC(C)C(O)c1c(O)c(O)c(OC)c(O)c1C(=O)OC(C)C2O (stereo not given)	i
Cc1cccc(N2CCN(C(=O)C3CCN(c4cc(Oc5ccccc5)ncn4)CC3)CC2)c1	i
O=C(Nc1ccccc1-c1ccccc1)c1coc(NC(=O)C2CCC2)n1	i
CCCS(=O)(=O)N1CCCc2cc(NS(=O)(=O)c3cc(C)c(C)cc3OC)ccc21	i
O=C(NCCCN1CCOC(c2ccccc2)C1)NC1CCCCC1 (stereo not given)	i
Cc1c(C(=O)NC(C)c2ccccc2)cnn1-c1cc(-c2nc(C(C)(C)C)no2)ccn1 (stereo not given)	i
CCc1ccc(S(=O)(=O)NCC2(c3ccccc3)CCOCC2)s1	i
CC(=O)Nc1nc2c(s1)CN(C(=O)c1nc3ccccc3s1)CC2	i
COc1ccc(CN2COc3ccc4c(=O)c(-c5ccccc5)c(C)oc4c3C2)cc1	i
CC1=NN(CCN2CCN(c3ccc(F)cc3)CC2)c2nc3c(c(=O)n(C)c(=O)n3C)n2C1C (stereo not given)	i
O=C(NCC1CCN(C(=O)c2ccncc2)CC1)c1c(F)cccc1Cl	i
CCOC(=O)c1ccc(Nc2nnc(-c3sc(N)nc3C)s2)cc1	i
CCOC(=O)N1CCN(C(=O)CCC2=NNC3C4CC(c5ccccc5)NN4C=CN23)CC1 (stereo not given)	i
CC(=O)Nc1ccc(NC(=O)CSc2nc3c(-c4ccc(C)cc4)csc3c(=O)n2C)cc1	i
CCc1cc(=O)n(CC(=O)N(C)c2cccc(C)c2)c(N2CCOCC2)n1	i
COc1ccc(-c2cc3nc(C)cc(N4CCN(c5nc(C)cc(C)n5)CC4)n3n2)cc1OC	i
CCOc1ccc(NC(=O)N2CCC(C(=O)NCC(F)(F)F)CC2)cc1	i
Cc1[nH]c(=O)[nH]c(=O)c1CCc1nnc(SCC(=O)NC2CCS(=O)(=O)C2)o1 (stereo not given)	i
CC1=C(C)CC2C(=O)N(c3ccc(N4CCCCC4)cc3)C(=O)C2C1 (stereo not given)	i
Cc1ccc(Cn2c(=O)c3ccc(C(=O)NC4CCCC4)cc3n3c(=O)n(CC(N)=O)nc23)cc1	i
Cc1ccc(S(=O)(=O)NC(=O)COc2cccc(C(=O)Nc3ccccc3)c2)cc1	i
CCOc1ccccc1NC(=O)c1n[nH]nc1Nc1ccc(OC)cc1	i
COc1ccc(OCC2c3cc(OC)c(OC)cc3CCN2C(=O)c2cccnc2)cc1 (stereo not given)	i
COC(=O)c1ccc(NC(=O)c2csc(Nc3ccc(S(C)(=O)=O)cc3)n2)cc1	i
CC(CCc1ccccc1)NC(=O)Cn1c(=O)oc2ccc(Cl)cc21 (stereo not given)	i
Clc1ccc2c(c1)C(N1CCNCC1)=Nc1ccccc1O2	i
COc1ccc(CC(=O)N(Cc2ccsc2)Cc2ccco2)cc1OC	i
CC(=O)N(CC1CCCO1)c1nc2c(F)cccc2s1 (stereo not given)	i
NC(=O)c1ccccc1OCC#CCNC(=O)c1ccco1	i
COc1ccc(NC(=O)c2ccc3nn(CC(=O)N4CCN(c5ccccc5)CC4)c(=O)n3c2)cc1	i
O=C(CN1CCC(Cn2c(C(F)(F)F)nc3ccccc32)CC1)Nc1nncs1	i
CCOC(=O)c1ccc(Nc2cc(C(=O)N3CCSCC3)nc3ccccc23)cc1	i
COc1ccc(NC(=O)Cn2c(=O)nc(-c3ccccc3)c3ccccc32)cc1OC	i
CS(=O)(=O)c1cccc(S(=O)(=O)NCCc2ccc(S(N)(=O)=O)cc2)c1	i
CS(=O)(=O)NCC1(c2ccc(F)cc2)CC1	i
COc1ccc(CC(C)(O)CNC(=O)NCc2cccs2)cc1 (stereo not given)	i
O=C(NCC1CCN(Cc2ccccc2)CC1)C(=O)Nc1cccnc1	i
CC(=O)c1ccc(NC(=O)CSc2nccn2-c2cccc(C(=O)NCc3ccco3)c2)cc1	i
COc1cc2nc(SCC(=O)Nc3ccc(C)cc3C)n3nc(C)nc3c2cc1OC	i
C=C(C)Cn1c(SCC(=O)NC2CCCCC2)nc2sc3c(c2c1=O)CCC3	i
Cc1ccc(NC(=O)C(=O)NCC2(c3ccc(F)cc3)CC2)cc1F	i
O=C(Nc1cccc(OC(F)F)c1)C1COCC(=O)N1Cc1ccccc1 (stereo not given)	i
O=C(CS(=O)(=O)Cc1ccccc1)N(Cc1ccco1)c1nc2c(F)cc(F)cc2s1	i
NS(=O)(=O)c1ccc(CCNC(=O)Cc2csc(-n3cccc3)n2)cc1	i
Cn1nc(-c2ccc(F)cc2)cc1C(=O)Nc1ccc2c(c1)CN(S(=O)(=O)c1ccccc1)CC2	i

20 structures already listed, sorted by heavy-atom count, largest number first.
SMILES	GIRK2 activ
COc1ccc(NC(=O)c2ccc3nn(CC(=O)N4CCN(c5ccccc5)CC4)c(=O)n3c2)cc1	i
Cc1ccc(Cn2c(=O)c3ccc(C(=O)NC4CCCC4)cc3n3c(=O)n(CC(N)=O)nc23)cc1	i
COc1ccc(-c2cc3nc(C)cc(N4CCN(c5nc(C)cc(C)n5)CC4)n3n2)cc1OC	i
CS(=O)(=O)N1CCC(C(=O)Nc2c3c(nn2CC(=O)NCc2ccc(F)cc2)CSC3)CC1	i
CCCc1cc(=O)[nH]c(-n2nc(-c3cccs3)cc2NC(=O)c2ccc3c(c2)OCO3)n1	i
Cc1cc(N2CCN(C(=O)Cc3c[nH]c4ccccc34)CC2)nc(N2CCOCC2)n1	i
Cc1ccc(S(=O)(=O)NC(=O)COc2cccc(C(=O)Nc3ccccc3)c2)cc1	i
CC(NC(=O)c1nnn(-c2ccccc2Cl)c1-c1ccccn1)c1cccnc1 (stereo not given)	i
Cc1[nH]c(=O)[nH]c(=O)c1CCc1nnc(SCC(=O)NC2CCS(=O)(=O)C2)o1 (stereo not given)	i
O=C(Nc1ccccc1-c1ccccc1)c1coc(NC(=O)C2CCC2)n1	i
Cc1nn(-c2ccccc2)c2sc(C(=O)N(C)C3CCN(C)CC3)cc12	i
Cc1ccc(N=c2oc3c(C)ncc(CO)c3cc2C(N)=S)cc1Cl	i
CC(=O)Nc1nc2c(s1)CN(C(=O)c1nc3ccccc3s1)CC2	i
Cc1ccc(-c2ccc(OCC(=O)N3CCOCC3)cc2)cc1	i
Cc1nc(CSc2nnc3scc(-c4ccccc4)n23)cs1	i
Cc1cc(S(=O)(=O)NCc2ccco2)cc([N+](=O)[O-])c1C	i
COc1ccc(C(=O)NC2CC(=O)N(C3CC3)C2)cc1 (stereo not given)	i
C/C=C/C(=O)N1CCCSCC1CN1CCCC1 (stereo not given)	i
CS(=O)(=O)NCC1(c2ccc(F)cc2)CC1	i
C#CCCNC(=O)c1ccc(F)c(F)c1	i
